# Source: PubChem (several laboratories)
# WNV NS2B-NS3 inh – inhibitors of West Nile virus NS2B-NS3 protease | P06935 | WNV NS2B-NS3 protease, fluorogenic substrate Ex360/Em465; active compounds read low | z-score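 (tested at a level between 10 and 100 µM)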 | 65,000 compounds, 0.18% hits | AID 577;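 active = z-score at -3 or under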;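 note: score is relative to mean and spread of the compound wells of a plate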
# Target sequence (P06935 1371-1501 limits assumed): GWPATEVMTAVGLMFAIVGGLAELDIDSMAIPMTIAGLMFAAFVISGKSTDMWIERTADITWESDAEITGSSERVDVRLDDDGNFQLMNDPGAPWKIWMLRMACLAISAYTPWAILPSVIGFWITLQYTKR
# Target sequence (P06935 1502-1679 limits assumed): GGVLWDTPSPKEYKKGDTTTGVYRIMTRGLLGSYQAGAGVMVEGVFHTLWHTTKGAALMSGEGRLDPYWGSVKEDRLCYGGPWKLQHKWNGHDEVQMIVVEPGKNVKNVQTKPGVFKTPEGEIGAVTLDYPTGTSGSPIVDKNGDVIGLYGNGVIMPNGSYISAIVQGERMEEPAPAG
# Hsc70 – Hsc70 inhibitors, probe displacement, primary screen, biochemical, fluorescence polarization (AID 568); Hsc70 fluorescence polarization, probe displacement; higher % means a stronger effect; strong numbers were not always called active; displacement, % at 20 µM; hits with a dose series show IC50 in µM; 83,000 tested, under 10 active;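 active = displacement above 50% without optical interference and an IC50 on retest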;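 note: ATPase domain with a fluorescein-tagged ATP probe; 0% = vehicle and 100% = excess ADP; read after one hour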
# MT1-MMP promoter – MT1-MMP gene expression reporter suppression – cell-based, luciferase reporter, luminescence (AID 618); MT1-MMP promoter luciferase reporter cells, luminescence; calls from a first round at 10 µM; hits with a dose series show EC50 in µM; 87,000 compounds, 0.62% hits;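 active = over half of the reporter light lost at 10 µM or EC50 under 50 µM; inactive = the rest and hits that failed the dose series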;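 note: actives suppress MT1-MMP promoter-driven transcription so potencies describe inhibitors; HT1080 fibrosarcoma cells; overnight exposure; toxic or luciferase-blocking compounds were not removed from the actives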
# * = called active by the depositor; i = inactive; nt = not tested or not shown.
# Sample of the layout, 2 compounds:
Compound | WNV NS2B-NS3 inh | Hsc70 | MT1-MMP promoter
COc1ccccc1NC(=O)CCN1CCN(Cc2ccccc2)CC1 | nt | 1.7% | i
CCOc1ccc(N2C(=O)c3ccccc3C2=O)cc1 | nt | 0.4% | i

# The listing (from the top)
Compound | WNV NS2B-NS3 inh | Hsc70 | MT1-MMP promoter
COc1ccccc1NC(=O)CCN1CCN(Cc2ccccc2)CC1 | nt | 1.7% | i
CCOc1ccc(N2C(=O)c3ccccc3C2=O)cc1 | nt | 0.4% | i
Cn1c(SCC(=O)OCC(=O)c2ccccc2)nnc1-c1cccs1 | 0.29 | 0.5% | i
CCOC(=O)C(O)(CCC(O)(C(=O)OCC)C(=O)OCC)C(=O)OCC | -0.17 | 7.5% | i
c1ccc(OCCn2c(-c3ccco3)nc3ccccc32)cc1 | 1.2 | -5.3% | i
CCN1CCN(c2ccc(-n3c(C)nc4c(cnn4-c4ccccc4Cl)c3=O)cc2)CC1 | 0.47 | -2.9% | i
CCN(Cc1ccccc1)S(=O)(=O)c1nc2nc(C)c(C)c(C)n2n1 | -0.3 | 1.5% | i
O=C(Cn1cc(C(=O)c2cccs2)c2ccccc21)NCc1ccc2c(c1)OCO2 | -0.27 | -6.6% | i
COc1ccc(NC(=O)c2c(-c3ccccc3Cl)noc2C)c(OC)c1 | 0.29 | -2.2% | i
CCOC(=O)N1CCN(C(=O)c2cc3c(=O)n(C)c4ccccc4c3n2C)CC1 | 1.1 | 2.9% | i
Cc1cc2c(c(=O)o1)C(Cc1ccccc1)C(C#N)=C(N)O2 (stereo not given) | 1.1 | -5.6% | i
CCn1c(Cn2nnc(-c3ccccc3)n2)nnc1SCc1ccc(Cl)c(Cl)c1 | -0.22 | -8.0% | i
Cc1ccc(OCCSc2nnc(NC(=O)c3ccco3)s2)cc1 | 0.76 | 0.4% | i
Oc1cc2ccccc2cc1-c1n[nH]c(=S)o1 | -1 | 7.4% | i
COc1ccccc1-c1cc(C(F)(F)F)nc(S(=O)(=O)CCCC(=O)N2CCCCC2C)n1 (stereo not given) | -0.41 | 5.7% | i
CC(/C=C/c1ccc2c(c1)OCO2)=N\NC(=O)c1cccc([N+](=O)[O-])c1 | nt | 4.5% | i
CCOC(=O)C1=C(C)Nc2ncnn2C1c1ccc2c(c1)OCO2 (stereo not given) | 0.57 | 7.0% | i
CC1CCN(S(=O)(=O)c2cc(Cl)ccc2Br)CC1 | -0.34 | -0.1% | i
COCCn1c(SCC(=O)N2CCCCC2)nc2ccccc2c1=O | -0.005 | -1.5% | i
CCCc1cc(C(=O)Nc2cc(OC)c(Cl)cc2OC)no1 | -0.11 | 4.4% | i
O=C(CSc1nc2ccsc2c(=O)n1Cc1ccccc1)NCc1ccco1 | -0.64 | 0.6% | i
O=C(O)CCC(=O)Nc1ccccc1C(=O)Nc1ccccc1 | nt | 3.1% | i
O=C(CC1Sc2ccccc2NC1=O)OC(C(=O)NCCc1ccccc1)c1cccnc1 (stereo not given) | nt | 4.6% | i
CCCCn1nnc(NC(=O)CC23CC4CC(CC(C4)C2)C3)n1 | 0.56 | 4.7% | i
COc1cc2c(=O)n(Cc3ccccc3)c(=O)n(CC(=O)NCC3CCCO3)c2cc1OC (stereo not given) | -0.33 | -0.1% | i
Clc1ccc(CSc2nnc([C@@H]3CCCN3)o2)cc1 | 0.12 | 0.6% | i
N#Cc1c(F)cccc1N1CCOCC1 | 0.24 | -3.8% | i
Cc1cc(Nc2ccccc2)nn1C(=O)c1ccc([N+](=O)[O-])cc1 | nt | 1.3% | i
CCOc1ccccc1NC1=NCC(=O)N1Cc1ccc(F)cc1 | 0.73 | -5.1% | i
CCC(=O)n1nc(NCc2ccccc2OC)nc1NCc1ccccc1OC | -0.01 | -0.3% | i
O=C(Nc1nnc(CCN2CCOCC2)s1)C1CCCCC1 | 0.67 | 0.2% | i
CN1C(=O)N(CN2CCCCC2)C2C1N(C)C(=O)N2CN1CCCCC1 (stereo not given) | -12* | 3.1% | i
CCN(CC)C(=O)C1CCN(S(=O)(=O)c2cccc3nonc23)CC1 | nt | -1.2% | i
Cc1nn(C(C)C(=O)O)c(=O)c2c1sc1ccccc12 (stereo not given) | -0.34 | 2.2% | i
COc1ccc(NC(=O)c2ccco2)cc1NC(=O)c1c(F)c(F)c(OC)c(F)c1F | 2.2 | 4.2% | i
COc1ccc(NS(=O)(=O)c2ccc(NS(=O)(=O)c3ccc(SC)cc3)cc2)c(OC)c1 | nt | 3.6% | i
O=C(c1ccccc1NS(=O)(=O)c1ccc(Br)s1)N1CCCC1 | -0.48 | 4.1% | i
CCN(CC)C(=O)CSc1nc2c(sc(=S)n2-c2ccccc2)c(=O)n1Cc1ccco1 | nt | -2.8% | i
CCOc1ccc(C2C(C(=O)c3ccc(C)o3)=C(O)C(=O)N2CCCN(CC)CC)cc1 (stereo not given) | -1.2 | 2.9% | i
COc1ccc(CC(NC(C)=O)C(=O)NC2CCN(S(=O)(=O)c3ccccc3)CC2)cc1OC (stereo not given) | -0.61 | 3.7% | i
CCCNc1c(N)c(=O)oc2ccccc12 | nt | -2.2% | i
COC(=O)c1c(NC(=O)C2CC2)sc2c1CCCC2 | -3.6* | 3.8% | i
COc1cc2c(=O)n(Cc3ccco3)c(=O)n(CC(=O)c3ccc(Br)cc3)c2cc1OC | -1.1 | -1.2% | i
O=Cc1cn(-c2ccccc2)nc1-c1ccc2c(c1)OCCO2 | nt | 2.5% | i
Cc1cccc(NC(=O)CS(=O)(=O)Cc2ccccc2)n1 | nt | -4.2% | i
O=C(NCCCO)c1ccc2[nH]c3ccccc3c2c1 | 0.08 | 0.1% | i
CSc1ccccc1NS(=O)(=O)c1ccc2c(c1)OCCO2 | 0.48 | -3.7% | i
Cc1ccc2c(c1)N(CC(=O)N1CCCCC1c1cccnc1)C(=O)CO2 (stereo not given) | 0.48 | -4.0% | i
Cc1cc(NC(=O)COC(=O)c2cc3c(s2)CCC(C)C3)no1 (stereo not given) | 0.12 | -2.9% | i
CCc1ccc(C(=O)/C=C/c2ccc([N+](=O)[O-])o2)cc1 | nt | -5.6% | i
COCCOc1ccc(C(F)(F)F)cc1Nc1nc2ccccc2o1 | 0.95 | 3.2% | i
COc1cccc(/C=N/n2cncn2)c1OCC#N | -0.06 | -3.0% | i
CC(C)[C@H](NC(=O)NC1CCCC1)C(=O)O | 0.17 | -4.3% | i
CCOc1cc(C(=O)N2CCN(c3ccc(C(C)=O)cc3)CC2)cc(OCC)c1OCC | 0.24 | 2.2% | i
Cc1nnc(SCC(=O)N2CCC(C(N)=O)CC2)s1 | -0.83 | 3.3% | i
O=C(COC(=O)CCOc1ccccc1)Nc1ccc(Cl)cn1 | -0.13 | -8.1% | i
CCOc1ccc(N(CC(=O)NC2CCCCCC2)S(=O)(=O)c2c(C)noc2C)cc1 | -0.32 | -0.1% | i
COC(=O)c1ccc(Oc2nc3c(c(=O)n(C)c(=O)n3C)n2CCC(C)C)cc1 | 0.54 | -2.9% | i
CC1=CCC2C(=O)N(c3ccc(C)cc3)C(=O)C2C1 (stereo not given) | nt | 1.4% | i
COc1ccc(OC)c(C2C(C(=O)c3cccs3)=C(O)C(=O)N2CCN(C)C)c1 (stereo not given) | 0.16 | -2.5% | i

# Next section.
Compound | WNV NS2B-NS3 inh | Hsc70 | MT1-MMP promoter
Cc1c(C(=O)Nc2nnc(C(F)(F)F)s2)oc2ccccc12 | 1.6 | 0.7% | i
CCCS(=O)(=O)c1c(S(=O)(=O)CCC)c2cc(CC)ccn2c1C(=O)OC | -0.48 | 2.7% | i
CC(C)COc1cccc(C(=O)Nc2ccc(S(=O)(=O)N3CCOCC3)cc2)c1 | 1.2 | 9.2% | i
CCSc1nnc(NC(=O)CSc2nc3c(c(=O)n2C)SC(C)C3)s1 (stereo not given) | -0.61 | 0.3% | i
Cc1nn(-c2ccccc2)c2c1C1(C(=O)N3c4c(cccc41)C(C)CC3(C)C)C(C#N)=C(N)O2 (stereo not given) | nt | 6.5% | i
COc1ccc(-c2nnn(CC(=O)NCc3cccs3)n2)cc1OC | nt | 2.3% | i
O=C(COc1ccccc1)Nc1cccc(-c2nnc(-c3ccccc3)o2)c1 | -0.35 | 4.9% | i
Cc1cccc(NC(=O)C2CCCN2C(=O)Oc2ccccc2)c1 (stereo not given) | nt | 0.0% | i
CC1CC(C(F)(F)F)n2ncc(C(=O)O)c2N1 (stereo not given) | 0.33 | 1.5% | i
CCCOc1ccc([C@@H]2C3CN(C(=O)OCC)CC=C3C(C#N)=C(N)C2(C#N)C#N)cc1OC (stereo not given in full) | 0.35 | -11% | i
Cc1ccc(SCc2nc(-c3ccccc3)no2)cc1 | -1.6 | 5.7% | i
COCCNC(=O)c1ccc2ccccc2n1 | 1.4 | -2.9% | i
CCOc1ccc(C(=S)N2CCCC2)cc1 | nt | -1.6% | i
CC1(C)Cc2c(c(N3CCOCC3)nc3snc(NC(=O)c4ccccc4)c23)CO1 | nt | -0.7% | i
c1cc2nncn2nc1N1CCCC1 | -0.4 | 2.9% | i
O=C(O)c1cc(NCc2ccc(F)cc2)ccc1N1CCOCC1 | nt | 4.4% | i
Cc1nc(NCc2ccco2)c(C#N)c2c1COC(C)(C)C2 | -0.1 | -3.7% | i
Cc1cc2cc(CN(Cc3cccs3)Cc3nnnn3CC3CCCO3)c(=O)[nH]c2cc1C (stereo not given) | -0.04 | 3.4% | i
CCOC(=O)N1CCC(NS(=O)(=O)c2ccc3c(c2)C(C)(C)C(=O)N3C)CC1 | -0.5 | 4.0% | i
CCC(CC)C(=O)Nc1c2cnn(-c3ccccc3)c2nc(=O)n1-c1ccccc1 | 1 | -0.9% | i
COC(=O)c1cc2ccccc2oc1=O | nt | 4.3% | i
CCC(NC(=O)N(Cc1ccccc1)Cc1ccc2c(c1)OCO2)(C(F)(F)F)C(F)(F)F | nt | -1.1% | i
COCCn1c(C)cc(C(=O)COC(=O)c2cc3c(s2)CCC3)c1C | -0.73 | 4.7% | i
CC[C@@H](C)[C@H](NS(=O)(=O)c1ccc(C)cc1)C(=O)N1CCC(C(=O)NCC(=O)O)CC1 | -0.99 | -10% | i
COc1ccc(Nc2nc(N3CCCC3)c3ccccc3n2)cc1 | -0.89 | 3.0% | i
CN(CC(=O)NCc1ccco1)S(=O)(=O)c1ccc2c(c1)n(C)c(=O)c(=O)n2C | -0.71 | -4.0% | i
COCCCNC(=O)c1ccccc1NS(=O)(=O)c1ccc(C)cc1 | -0.05 | 2.6% | i
CCSc1cc(C)nc2ncnn12 | nt | 2.7% | i
CC1Cc2ccccc2N1C(=O)c1cnc2ccccn2c1=O (stereo not given) | 0.04 | -4.6% | i
COc1ccccc1CNc1nc2nc3c(c(=O)n2[nH]1)CCC3 | -0.45 | 0.5% | i

# 7 compounds picked at random from the list so far:
Compound | WNV NS2B-NS3 inh | Hsc70 | MT1-MMP promoter
COCCNC(=O)c1ccc2ccccc2n1 | 1.4 | -2.9% | i
CC[C@@H](C)[C@H](NS(=O)(=O)c1ccc(C)cc1)C(=O)N1CCC(C(=O)NCC(=O)O)CC1 | -0.99 | -10% | i
Cc1ccc(SCc2nc(-c3ccccc3)no2)cc1 | -1.6 | 5.7% | i
c1cc2nncn2nc1N1CCCC1 | -0.4 | 2.9% | i
CC1Cc2ccccc2N1C(=O)c1cnc2ccccn2c1=O (stereo not given) | 0.04 | -4.6% | i
CCOC(=O)N1CCC(NS(=O)(=O)c2ccc3c(c2)C(C)(C)C(=O)N3C)CC1 | -0.5 | 4.0% | i
COCCCNC(=O)c1ccccc1NS(=O)(=O)c1ccc(C)cc1 | -0.05 | 2.6% | i

# Next structures.
Compound | WNV NS2B-NS3 inh | Hsc70 | MT1-MMP promoter
O=C(CN(CC1CCCO1)C(=O)CCC(=O)Nc1nccs1)NCc1ccccc1 (stereo not given) | nt | 2.3% | i
CC1CCCCN1C(=O)Cn1c(=O)oc2ccccc21 (stereo not given) | -0.17 | 1.5% | i
CC(=O)NS(=O)(=O)c1ccc(NC(=O)c2ccc(Br)o2)cc1 | nt | -6.3% | i
Cc1cc(C)n(S(=O)(=O)c2ccc(Cl)c(Cl)c2Cl)n1 | -0.92 | -2.1% | i
O=C(Nc1cccc(C(F)(F)F)c1)C1CCCN(S(=O)(=O)c2cnc[nH]2)C1 (stereo not given) | 0.32 | 8.8% | i
Cc1ccc(C(=O)NCCN2CCOCC2)cc1 | nt | 1.3% | i
CCCCC(=O)Nc1ccc(C(N)=O)cc1 | 1.3 | -3.2% | i
CC(=O)c1cnc(Nc2nc(C)c3cccc(C)c3n2)nc1C | 1.8 | -6.2% | i
CCCCc1ccc(NC(=O)CSC2=C(C#N)C(c3ccco3)C3=C(CCCC3=O)N2)cc1 (stereo not given) | -1.2 | -1.5% | i
CC12/C(=N/O)C3C4CC5C3/C(=N/O)C1C5C42 (stereo not given) | -0.3 | 3.8% | i
CCCc1nnc(NC(=O)Cn2c(=O)oc3ccccc32)s1 | 1.8 | 17% | i
COc1cc(C)c(C#N)c(OC)n1 | 0.33 | -0.3% | i
CCN(Cc1ccccc1)C(=O)CSc1nc(C)cc(C)c1C#N | 1.1 | 6.6% | i
CCn1c(Cc2cccs2)nnc1SCC(=O)c1ccc(C)cc1 | nt | 3.1% | i
Cc1cccc(NC(=O)c2cc(NC(=O)C3CC=CCC3C(=O)O)ccc2N2CCOCC2)c1 (stereo not given) | -0.72 | 1.4% | i
Cc1nc2ncnn2c(N2CCCC(C(=O)Nc3ccc4c(c3)CCC4)C2)c1C (stereo not given) | 0.04 | 0.0% | i
